Six1-Eya2 blk: Six1/Eya2 interaction inhibition; Q15475+O00167; AlphaScreen GST-Six1/His-Eya2 binding, biochemical; stronger effect = lower value; control for the full effect not named in the record; activity change, % (concentration not given with the values); actives 0.56% (n = 360,000); AID 651725; in the data active = activity change below about -65%; inconclusive = about -30% to -65%; inactive = above about -30%; further: on the % scale 0 is the no-effect control and ±100 the full control effect
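AlphaScreen with GST-Six1 and His-Eya2 (5X mix: 250 nM and 500 nM), glutathione donor and nickel acceptor beads; buffer 50 mM Tris pH 8.0, 300 mM NaCl, 1 mM TCEP; 1 h at 37 C in the dark.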
TRPV1 PAM: enhances activation of the human vanilloid receptor TRPV1; Q8NER1; TRPV1-expressing cells, Fluo-8 calcium influx, capsaicin EC20 potentiation; host cell line not named in the record; control for the full effect not named in the record; potentiation, % at 8.33 µM; actives 0.02% (n = 320,000); active means potentiation above 80%; inconclusive means 30% to 80%; inactive means below 30%; further: 0% is about no effect
Target sequence (Q8NER1 whole entry, looked up): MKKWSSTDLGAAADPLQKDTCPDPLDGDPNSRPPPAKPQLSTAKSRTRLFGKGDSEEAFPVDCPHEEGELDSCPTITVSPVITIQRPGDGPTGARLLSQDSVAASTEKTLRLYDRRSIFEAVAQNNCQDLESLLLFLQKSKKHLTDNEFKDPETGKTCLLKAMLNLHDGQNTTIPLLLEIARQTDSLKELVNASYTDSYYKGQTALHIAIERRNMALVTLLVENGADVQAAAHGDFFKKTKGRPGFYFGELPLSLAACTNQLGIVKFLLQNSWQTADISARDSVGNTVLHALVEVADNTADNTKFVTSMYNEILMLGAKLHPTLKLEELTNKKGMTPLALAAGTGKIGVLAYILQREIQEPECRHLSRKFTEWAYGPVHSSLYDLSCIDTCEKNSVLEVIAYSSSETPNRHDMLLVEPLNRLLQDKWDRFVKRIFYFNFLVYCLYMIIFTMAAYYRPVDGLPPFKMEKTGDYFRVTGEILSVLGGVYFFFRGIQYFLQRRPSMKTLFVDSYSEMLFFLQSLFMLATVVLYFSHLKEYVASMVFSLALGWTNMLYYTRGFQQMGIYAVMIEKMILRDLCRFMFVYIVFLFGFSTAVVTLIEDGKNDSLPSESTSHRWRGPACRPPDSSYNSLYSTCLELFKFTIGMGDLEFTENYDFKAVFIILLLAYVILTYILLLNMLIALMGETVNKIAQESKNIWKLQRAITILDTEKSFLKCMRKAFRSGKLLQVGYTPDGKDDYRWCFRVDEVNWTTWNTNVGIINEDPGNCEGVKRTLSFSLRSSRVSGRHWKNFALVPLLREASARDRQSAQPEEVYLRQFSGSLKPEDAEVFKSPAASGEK
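Cells expressing TRPV1 were dye-loaded with Fluo-8 and read kinetically: 10 s baseline, 3 min after compound (agonist portion), then 2 min after EC20 capsaicin (allosteric enhancer portion). Calcium-bound dye fluorescence at 480/520 nm.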
D2 ag: human D2 receptor agonism in beta-arrestin assay | P14416 | DiscoveRx PathHunter D2 beta-arrestin, luminescence, 90 min; 100% = 57 uM dopamine signal | activation, % (no concentration beside the values) | actives 0.084% (n = 360,000); in the data active = activation above about 40%; inconclusive = about 15% to 40%; inactive = below about 15%; further: compound concentration not given in the record; the text of the record calls up to 30% inactive
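Agonist mode: compounds alone added to overnight-plated D2 PathHunter cells for 90 min at 37 C, with 57 uM final dopamine (EC100) defining full response. Beta-arrestin recruitment detected by chemiluminescent reagent, read after 1 h at ambient temperature.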
Sfp inh: inhibitors of Bacillus subtilis Sfp phosphopantetheinyl transferase | AID 1490 | Q9F4F7 | Biochemical Sfp PPTase activity, qHTS | actives 3.5% (n = 310,000) | Potency, µM, for inactives: max response, negative = inhibition, hits mostly inhibitors; active means well fitted inhibition curve with a large enough effect; inconclusive means small, poorly fitted or top-dose-only effect, or another doubt; inactive means no such curve, though single readings can be large or run the other way;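 further: the enzyme is Sfp with the accession as filed and its product quenches rhodamine fluorescence; potency means the concentration at half of the fitted maximal effect; 0% = enzyme reaction without inhibitor and -100% = no enzyme wells; top concentration of the series not given in the record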
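Fluorescence-quenching assay with 15 nM Sfp, 5 uM rhodamine-CoA and 12.5 uM BHQ-2-labelled ybbR peptide in pH 7.6 Hepes/MgCl2 buffer. Enzyme was pre-incubated with compound for 15 min at room temperature. Rate was taken from the 30-min fluorescence change (525/598 nm).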
CtBP-E1A blk: blocks the CtBP interaction with E1A; activity change, % (test concentration not listed); AlphaScreen GST-E1A/His-CtBP binding, 1536-well; stronger effect = lower value; control for the full effect not named in the record; actives 0.49% (n = 340,000); AID 651724; in the data active means activity change below about -65%; inconclusive means about -30% to -65%; inactive means above about -30%; further: on the % scale 0 is the no-effect control and ±100 the full control effect; compound concentration not given in the record
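In 5 uL wells, 23 nL compound meets equimolar GST-E1A and His-CtBP (5X stock 125 nM each) for 2 h, 37 °C. Beads (5X, 50 ug/mL) then 1 h, 37 °C, dark.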
PINK1 expr mod: PINK1 expression modulation. PINK1 immunofluorescence, high-content cytometry, 24 h. Potency, µM (doses to about 76.6 µM), inactives show at the highest dose activation (PINK1 increase), actives largely listed as activators. actives 0.2% (n = 410,000); active = well fitted activation curve with a large enough effect; inconclusive = small, poorly fitted or top-dose-only effect; inactive = flat fitted curve, though single readings scatter; cell line not stated here;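 further: potency means the concentration at half of the fitted maximal effect; % of control where 0% means no effect; nearly all actives have a fitted effect of over 65% in size; a mitochondrial uncoupler was the plate control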
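PINK1 protein, normally rapidly degraded, was detected by immunofluorescence after 24 hour compound treatment of a stable cell line. Titration data (5 concentrations) came from laser-scanning cytometry, with CCCP-treated wells as controls.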
D2 potentiator: human D2 receptor positive allosteric modulation; P14416; DiscoveRx D2 beta-arrestin cells, luminescence, 90 min; 100% = 57 uM dopamine signal; potentiation, % (concentration not given with the values); actives 0.23% (n = 360,000); AID 624464; active = potentiation of 50% or more; inconclusive = 30% to 50%; inactive = 30% or less;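 further: compound concentration not given in the record; tested on top of an EC20 dose of dopamine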
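D2 cells co-treated with compound plus 50 nM dopamine (EC20) for 90 min at 37 deg C to detect potentiation. Beta-arrestin recruitment was read as enzyme-fragment luminescence after 1 h at ambient temperature. Full response was set by 57 uM dopamine.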
Active calls of the source: *; ? = inconclusive; · = no result given; & = joins results of further samples; [ ] = dose if it differs, or a comment.

mol	Sfp inh	PINK1 expr mod	D2 potentiator	D2 ag	TRPV1 PAM	CtBP-E1A blk	Six1-Eya2 blk
CCN(CC)S(=O)(=O)c1ccc(C(=O)Nc2ccc(C(F)(F)F)n(C)c2=O)cc1	6%	10%	-7	-4.6	11	-1	-14
COc1ccc(CNC(=O)[C@@H]2CC=C[C@@H]3CCN(C4CC4)C(=O)[C@@H]32)cc1	·	2.1%	-5	-1.9	·	·	-4
OC(CN1CCN(c2ccccn2)CC1)Cn1c2ccc(Cl)cc2c2cc(Cl)ccc21 (stereo not given)	-4%	1.7%	-1	-5.8	4	-13	-1
O=C(Cc1ccccc1)NC1(O)C(=O)c2ccccc2C1=O	6%	3.1%	-38	-11	-17	0	19
COc1cccc(/C=C2/Sc3ccc(C(=O)NCCN4CCCC4)cc3NC2=O)c1	-25%	-2.4%	-15	-2.8	-1	·	-12
O=C(NCC(c1ccco1)N1CCOCC1)c1cccc([N+](=O)[O-])c1 (stereo not given)	22%	1.8%	2	-1.2	9	10	-1
COc1ccccc1C(=O)NNC(=O)c1ccc(Br)o1	1%	1.3%	-8	-2.7	-2	-1	2
COc1ccc(N2CCN(C(=O)COC(=O)c3nc(Cl)ccc3Cl)CC2)cc1	·	2.9%	-14	-2.4	·	6	-7
O=C(CSc1nc2ccccc2c2nc3ccccc3n12)NCc1ccco1	?	-0.9%	-6	-0.6	10	-22	-25
COc1ccc(NC(=O)c2cc(-c3cc(OC)c(OC)c(OC)c3)nc3ccccc23)c(OC)c1	1%	-2.7%	-1	-1.8	-1	-9	-24

Later entries:
mol	Sfp inh	PINK1 expr mod	D2 potentiator	D2 ag	TRPV1 PAM	CtBP-E1A blk	Six1-Eya2 blk
CCCNC(=O)CCc1nnc2ccc(N3CCC(C)CC3)nn12	9%	-0.8%	-2	-0.2	21	6	1
O=C([C@H](Cc1ccc(O)cc1)n1cc(CCO)nn1)N1CCNCC1	9%	1.3%	-7	0.5	?	3	-10
c1ccc(Cn2ccnc2SCc2nnc(-c3ccccc3)o2)cc1	-9%	1.1%[38.3 µM]	-10	-0.9	-11	20	-1
CCOC(=O)c1c(NC(=O)c2cccs2)sc(C(=O)N2CCOCC2)c1C	·	6.8%	-3	0.6	·	1	6
O=C(Nc1nc2ccccc2[nH]1)C1CCCC1	15%	3.0%	2	-0.3	-7	11	-19
CC(C)(C)SCCNC(=O)/C=C/c1cccc([N+](=O)[O-])c1	-19%	0.4%	-23	-2.3	-16	-4	-5
O=C(C(Cl)c1ccccc1)N1CCCC1 (stereo not given)	-3%	-1.4%	-4	-5.5	-1	0	1
O=C(CSc1nnnn1Cc1ccccc1)NCC(=O)c1ccccc1	3%	·	-24	-1.3	-9	9	5
NC(=S)NNC(=O)[C@@H]1CCCC[C@@H]1C(=O)O	?	1.5%	5	-1.2	-4	5	11
CN(Cc1nc2ccc(F)cc2[nH]1)Cc1c(C(=O)N(C)C)nc2ccc(Cl)cn12	3%	-3.1%	-1	8.5	17	2	36

Continuation.
mol	Sfp inh	PINK1 expr mod	D2 potentiator	D2 ag	TRPV1 PAM	CtBP-E1A blk	Six1-Eya2 blk
COc1cc(O)c(C(CCN2CCN(c3ccccc3)CC2)c2ccc(N(C)C)cc2)c(OC)c1 (stereo not given)	-9%&7%	6.0%	-24	-0.6	-12	-70*	-78*
CCOc1ccc(Cn2c(=O)oc3ccccc32)cc1	6%	4.1%&-0.4%	-2	-3.5	-4	18	8
CCC(C)C(=O)Nc1ccc(S(=O)(=O)N2CCCC2)cc1 (stereo not given)	1%	0.0%	-1	1.7	-3	3	14
CCOc1ccc(NC(=O)CSc2nnc(C)n2CC)cc1	8%	0.8%	-17	-1.3	0	-1	-16
Cc1cc(C)cc(NC(=O)CN2C(=O)COc3ccc(S(=O)(=O)N4CCCC4)cc32)c1	17%	0.9%	-13	-4.5	-6	·	-5
COc1ccc(OC)c(NC(=O)CN2C(=O)C(=O)N(Cc3ccccc3)C2=O)c1	·	0.2%	-2	-1.8	-15	0	1
OC1(c2cccs2)CN(c2ccc(Cl)cc2)C2=[N+]1CCCC2 (stereo not given)	5%	-1.0%	-19	-3.3	8	-3	-5
CC(C)c1ccc(/C=N/N2CCN(c3ccccn3)CC2)cc1	16%	3.5%	-5	3.6	·	-14	-6
COCCNC(=O)C(c1cccnc1)N(Cc1ccc(C)cc1)C(=O)Cn1nnc2ccccc21 (stereo not given)	18%	1.8%	-1	3.9	4	10	6
CCc1cccc(C)c1NC(=O)CCN1C(=O)NC(C)(C)C1=O	·	1.6%	-4	-2.2	-6	·	23

Later entries
mol	Sfp inh	PINK1 expr mod	D2 potentiator	D2 ag	TRPV1 PAM	CtBP-E1A blk	Six1-Eya2 blk
O=C(N/N=C/c1ccc(OC(F)F)cc1OC(F)F)NC1CCCCC1	-15%	11%	-4	2.9	3	5	0
COc1ccc(Cn2nnnc2C(c2cc3cc(C)ccc3[nH]c2=O)N2CCN(C)CC2)cc1 (stereo not given)	1%	-2.7%	0	-4.9	4	-19	-12
Cc1c(C)c2ccc(OCC(=O)NCCCN3CCCC3=O)cc2oc1=O	8%	0.4%	-9	-2.6	7	·	6
O=C(c1cc2c([nH]c1=O)CCCC2)N1CCc2c([nH]c3ccccc23)C1c1ccccc1F (stereo not given)	-9%	-1.3%	-9	-0.9	4	-9	-12
CCN(CC)S(=O)(=O)c1cc(C(=O)c2nccn2C)ccc1Cl	5%	-0.5%	-5	-2.0	-16	-13	-4
CCCCn1nnc(NC(=O)c2sc3cc(Cl)ccc3c2Cl)n1	-9%	1.3%	-16	-3.4	-5	-3	-1
COc1ccc(Cl)cc1NC(=O)CN(C)C(=O)CN1C(=O)NC(C)(C)C1=O	·	-1.6%	-3	-0.2	3	1	4
C/C(=N\Nc1ncc(Cl)cc1Cl)c1ccc(C#N)cc1	11%	2.2%	-4	-1.6	-6	-16	-6
O=C(Cc1ccc(F)cc1)Nc1ccc(S(=O)(=O)N2CCCC2)cc1	·	-2.5%	-13	-0.2	0	0	-17
COc1cc(/C=C/C(=O)N2CCCN(C(=O)/C=C/c3cc(OC)c(OC)c(OC)c3)CC2)cc(OC)c1OC	16%	1.7%	-3	-4.6	6	·	14

(listing goes on)
mol	Sfp inh	PINK1 expr mod	D2 potentiator	D2 ag	TRPV1 PAM	CtBP-E1A blk	Six1-Eya2 blk
Cc1cc(N2CCN(C)CC2)n2cc(-c3ccc(F)cc3)nc2n1	14%	-0.3%[38.3 µM]	-12	-2.3	5	0	-1
Cc1ccc(OCC(=O)N/N=C\c2ccc(O)cc2)c([N+](=O)[O-])c1	-11%	11%	-9	2.9	-4	5	0
O=C(Nc1cccc([N+](=O)[O-])c1)c1ccc(CSc2ccccc2)cc1	9%	7.5%	-15	-1.3	2	2	-3
CC12CCC(=O)N1C(C(=O)Oc1cccc(F)c1)CS2 (stereo not given)	·	0.4%	-3	-1.3	·	3	0
COc1ccc(NC(=O)CSc2ccc(-c3cccs3)nn2)c(OC)c1	8%	6.9%	-17	5.7	-10	-25	2
Cc1ccccc1NC(=O)COC(=O)CCc1c[nH]c2ccccc12	·	-2.0%	-6	-1.0	-1	-26	-5
Cc1cccc(NC(=O)Cn2cc(C(=O)c3ccco3)c3ccccc32)c1	14%	-0.5%&0.9%	-16	-2.4	21	-2	-1
COc1ccc(OC)c(-c2nn(-c3ccccc3)cc2C(=O)NC2(C)CCS(=O)(=O)C2)c1 (stereo not given)	·	1.2%	-34	-2.7	·	1	1
C/C(=N/NC(=O)c1ccncc1)C1=C(O)CC(C)(C)CC1=O	15%	2.1%	-27	-2.7	-17	-12	3
O=C1OCC(CO)(CO)N=C1NNc1ccc(Cl)c(Cl)c1	?	-0.2%[38.3 µM]	-5	0.2	9	0	-5

Remaining list, next part:
mol	Sfp inh	PINK1 expr mod	D2 potentiator	D2 ag	TRPV1 PAM	CtBP-E1A blk	Six1-Eya2 blk
O=C(c1ccccc1-c1ccccc1)N1CCCC1	9%	2.3%	-18	0.6	-2	0	7
O=C(/C=C/Nc1ccc(Oc2ccccc2Cl)cc1)c1ccco1	?	5.1%	-6	0.8	-17	5	-2
CC1CN(S(=O)(=O)c2cccc(C(=O)N=c3sccn3C)c2)CC(C)O1 (stereo not given)	·	1.0%	-3	9.7	7	-20	4
CC1CC(C)CN(C(=S)Nc2ccc(OC(F)F)cc2)C1 (stereo not given)	8%	2.6%	-7	-1.8	6	1	9
C=CCN(Cc1nc(-c2ccccc2)no1)C(=O)c1ccc2c(c1)OCO2	17%	3.6%	4	2.1	8	10	12
O=C(C[C@@H]1C/C=C\C[C@H](NC(=O)OCC2c3ccccc3-c3ccccc32)C(=O)OC[C@@H]2CCCN2C1=O)N[C@H](CO)Cc1ccccc1	·	0.6%	-9	-1.8	·	6	15
CCOC(=O)c1ccc(NC(=O)NCc2ccncc2)cc1	-1%	-1.0%	-8	-4.1	-9	-7	-11
COc1cc(/C=N/NC(=O)c2cccnc2)ccc1OC(=O)c1cc(OC)c(OC)c(OC)c1	8%	-1.5%	-1	9.1	15	2	11
COc1ccc(OC)c(S(=O)(=O)N(C)CC(=O)Nc2cc(Cl)ccc2OC)c1	13%	0.1%	-10	-2.5	26	-2	-7
CSc1ccc(C(=O)NCC(c2ccco2)N(C)C)cc1[N+](=O)[O-] (stereo not given)	7%	-1.8%	-9	-3.3	?	-3	3

Further structures follow:
mol	Sfp inh	PINK1 expr mod	D2 potentiator	D2 ag	TRPV1 PAM	CtBP-E1A blk	Six1-Eya2 blk
C=CCNC(=O)c1oc2ccc(S(=O)(=O)N3CCC4(CC3)OCCO4)cc2c1C	5%	-0.7%	-5	0.3	10	3	-1
Cc1cc(NC(=O)CSc2nc(-c3ccc(Br)cc3)nc3c2c(=O)n(C)c(=O)n3C)no1	2%	1.3%	1	-2.7	0	-11	-2
COC(=O)C(C)N(c1ccc(OC)cc1)S(C)(=O)=O (stereo not given)	2%	3.4%	-4	-2.4	7	13	3
CCCSC1=N/C(=C\c2ccc([N+](=O)[O-])o2)C(=O)S1	40µM*	2.2%	3	-9.1	6	-11	?
Cc1ccc2c(c1)cc(CN(Cc1ccc3c(c1)OCO3)C(=O)c1ccccc1)c1nnnn12	0%	-1.6%	-17	-3.7	-6	8	-1
Cn1c(N2CCC(C(N)=O)CC2)nc2c1c(=O)n(Cc1cccc(Br)c1)c(=O)n2C	-4%	-1.9%	17	0.8	-14	-8	-12
CC1CCN(S(=O)(=O)c2csc(C(=O)Nc3ccccc3)c2)CC1	28%	·	-20	0.6	3	1	2
CC(C)(C)c1cc(C(=O)NC2CC2)n(Cc2ccc(F)cc2)n1	19%	-0.6%	1	1.3	-11	-19	0

From PubChem

Hits appear at their usual frequency. About 3.7% of those tested had a hit in this group.
